GALR2 agonist – GALR2 receptor agonists, primary screen, cell-based | activation, %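 (tested at 5 µM)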 | 140,000 compounds, 0.48% hits | GALR2-expressing cells, agonist activation read-out | Galanin receptor type 2 (Homo sapiens), O43603;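 active = above mean plus 3 SD of all compounds, about 5% in these data, not always enough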;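 note: 0% = vehicle buffer wells and 100% = reference agonist at full effect; tested in CHO reporter cells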
Target sequence (O43603 whole entry, looked up): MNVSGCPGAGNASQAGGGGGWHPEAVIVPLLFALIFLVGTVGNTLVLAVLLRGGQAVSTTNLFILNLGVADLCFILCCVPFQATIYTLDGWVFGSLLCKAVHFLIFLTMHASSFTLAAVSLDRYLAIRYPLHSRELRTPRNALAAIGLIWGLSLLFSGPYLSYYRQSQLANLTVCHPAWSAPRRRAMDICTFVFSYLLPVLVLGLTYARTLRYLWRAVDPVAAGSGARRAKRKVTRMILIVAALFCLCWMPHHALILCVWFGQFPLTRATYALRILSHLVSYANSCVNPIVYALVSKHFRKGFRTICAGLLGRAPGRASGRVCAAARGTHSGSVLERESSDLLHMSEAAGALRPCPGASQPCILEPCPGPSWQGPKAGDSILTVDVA
Insulin prom inh – inhibitors of insulin promoter-driven GFP, primary screen, imaging, TRM-6 cells (human fetal islet line), eGFP reporter, cell count. reporter expression induced with tamoxifen. inhibition, % at 2 µM. 130,000 compounds, 0.9% hits. AID 1273, 2008;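 active = inhibition above the mean plus 3 SD, with well images judged a real hit on visual review, cut at about 60% in these data, passing the limit was not always enough; inconclusive = inhibition over the cutoff but images rejected on review; inactive = inhibition not above the cutoff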
PKD1 kinase inh – inhibitors of human PKD1 kinase, biochemical, fluorescence polarization; PKD1 kinase fluorescence polarization assay; inhibition, %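 (about 10 µM by stock and volumes)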; 200,000 compounds, 0.056% hits; AID 797, 2007;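 active = inhibition of 50% or more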;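 note: controls were vehicle for no effect and a reference inhibitor for full effect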
RGS16-Gao HTS – modulators of RGS16 binding to Galphao, primary screen, biochemical, human proteins, multiplexed bead flow cytometry; Regulator of G-protein signaling 16 (Homo sapiens) + Guanine nucleotide-binding protein …; bead-based flow cytometry RGS16-Galphao binding, fluorescence; actives lie on both sides; binding response (% of control), % at 10 µM; 220,000 compounds, 0.38% hits;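 active = below 25% or above 175%, edge rows of some plates excepted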;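 note: Galphao activated by GDP with aluminum fluoride before binding; 100% = wells without compound and 0% = beads without RGS; some results beyond the cut were filed as inactive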
Target sequence (O15492 whole entry, looked up): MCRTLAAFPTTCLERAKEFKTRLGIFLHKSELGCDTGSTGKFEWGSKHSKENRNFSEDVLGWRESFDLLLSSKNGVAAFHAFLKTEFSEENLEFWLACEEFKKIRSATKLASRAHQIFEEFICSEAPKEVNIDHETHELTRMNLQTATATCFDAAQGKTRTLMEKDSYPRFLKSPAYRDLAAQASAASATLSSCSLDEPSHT
Target sequence (P09471 whole entry, looked up): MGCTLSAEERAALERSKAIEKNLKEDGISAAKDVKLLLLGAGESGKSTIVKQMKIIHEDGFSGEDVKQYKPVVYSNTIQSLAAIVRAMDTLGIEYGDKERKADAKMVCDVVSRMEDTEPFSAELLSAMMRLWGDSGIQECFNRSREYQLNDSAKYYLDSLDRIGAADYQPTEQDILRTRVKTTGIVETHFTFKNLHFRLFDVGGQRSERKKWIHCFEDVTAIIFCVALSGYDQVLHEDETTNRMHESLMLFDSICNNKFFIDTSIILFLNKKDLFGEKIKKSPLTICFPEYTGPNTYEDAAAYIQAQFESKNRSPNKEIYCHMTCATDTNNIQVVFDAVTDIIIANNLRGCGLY
HSV replic up – enhancers of HSV replication in host cells, fold increase, host cell viability. HSV replication augmentation in cells. maximum fold increase. 220,000 compounds, 0.005% hits;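 active = peak rise of 1.5-fold or more in the series; inconclusive = self-fluorescent or not available for retest; tested in PC3 cells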;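 note: first round at 10 µM; read as green reporter fluorescence; hits show the peak of a series up to 25 µM; 1 = signal of infected wells without compound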
Insulin prom inh cell count – recorded beside Insulin prom inh, whose call it bears; normalized cell count, %; measured here: cell count, toxicity; reference of the scale not given here;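 cells exposed to compound for 48 h; stained nuclei by imaging scaled within each plate; lower means fewer cells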
HSV replic up primary fold – further read-out of HSV replic up, marked with its call; fold increase; compound at 10 µM; measured here: primary screen fold increase 10 uM; tested in PC3 cells;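 GFP signal in the first replicate; 1 = infected wells without compound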
* = called active by the depositor; i = inactive; u = inconclusive; x = no result given.

SMILES | GALR2 agonist | Insulin prom inh | Insulin prom inh cell count | PKD1 kinase inh | RGS16-Gao HTS | HSV replic up | HSV replic up primary fold
CC1CN(C(=O)C2(C)CC2(Br)Br)CC(C)O1 (stereo not given) | -1.2 | 22 | 92 | -18 | 98 | i | 0.95
Cc1ccccc1NC(=O)CN1C(=O)NC(C)(CCc2ccccc2)C1=O (stereo not given) | x | x | x | 0 | 99 | i | 0.92
CCN1CCN(C(=O)CSc2nc(N)cc(N)n2)CC1 | x | 32 | 79 | 2 | 96 | i | 1.1
COc1cc(/C=N/Nc2nc(-c3ccc(S(=O)(=O)N(C)C)cc3)cs2)ccc1O | x | x | x | x | 87 | i | 0.58
CCOC(=O)c1c(NC(=O)CN2CCCc3ccccc32)sc(C)c1C | -1.7 | 20 | 134 | -1 | 99 | i | 1
CSc1ccccc1NC(=O)CCc1ccccc1 | x | x | x | 6 | 102 | i | 1.1
Cc1cc(NC(=S)N(Cc2ccc(Cl)cc2)Cc2ccc(C(=O)O)cc2)ccc1Cl | x | x | x | -1 | 97 | i | 0.89
COc1ccc(/C=N/NC2=NCCCCC2)cc1 | -1.9 | 13 | 136 | -5 | 109 | i | 0.97
COCCN1C(=O)/C(=C/c2ccc(N3CCCC3)cc2)SC1=S | x | x | x | 8 | 111 | u | x
COCCn1c(=S)[nH]c2ccccc21 | x | 7 | 113 | 0 | 103 | i | 0.99
Cn1c(=O)n(Cc2ccccc2)c(=O)c2c1nc1n2CCN1Cc1ccco1 | x | x | x | 0 | 99 | i | 1.1
O=C(Nc1ccc(N2CCN(C(=O)c3ccccc3)CC2)cc1)c1ccc(Br)o1 | -1.4 | 41 | 122 | -8 | 94 | i | 0.92

Compounds above that have an aryl methoxy group, in the order listed:
SMILES | GALR2 agonist | Insulin prom inh | Insulin prom inh cell count | PKD1 kinase inh | RGS16-Gao HTS | HSV replic up | HSV replic up primary fold
COc1cc(/C=N/Nc2nc(-c3ccc(S(=O)(=O)N(C)C)cc3)cs2)ccc1O | x | x | x | x | 87 | i | 0.58
COc1ccc(/C=N/NC2=NCCCCC2)cc1 | -1.9 | 13 | 136 | -5 | 109 | i | 0.97

(further entries)
SMILES | GALR2 agonist | Insulin prom inh | Insulin prom inh cell count | PKD1 kinase inh | RGS16-Gao HTS | HSV replic up | HSV replic up primary fold
CC(=O)c1cccc(NC(=O)Nc2ccc(C(=O)N3CCOCC3)cc2)c1 | -1.0 | 20 | 55 | 5 | 106 | i | 0.92
NC(=O)C1(N2CCCCC2)CCN(C(=O)c2ccccc2)CC1 | -1.6 | x | x | -8 | 100 | i | 0.95
NC(=O)c1ccc(N2CCCCCC2)c([N+](=O)[O-])c1 | x | -33 | 124 | 0 | 100 | i | 0.95
COc1cc(C(=S)N2CCCC2)ccc1OC(=O)c1ccc(Cl)cc1[N+](=O)[O-] | 0.2 | 0 | 103 | 3 | 113 | i | 1.1
O=C1Nc2ccc([N+](=O)[O-])cc2OC1CCN1CCOCC1 (stereo not given) | x | x | x | 2 | 103 | i | 1.1
Cc1cccc(NC(=S)NNC(=O)c2csc3c2CCC(C)C3)c1 (stereo not given) | -1.4 | -7 | 118 | -5 | 100 | i | 0.98
Nc1nnc(SCC(=O)c2ccc([N+](=O)[O-])cc2)s1 | x | x | x | 3 | 103 | i | 1
Cc1c2c(n3c(nc4ccccc43)c1C#N)N(CCCN(C)C)CC2 | x | -55 | 115 | -5 | 100 | i | 1.2
Cc1ccc(S(=O)(=O)CCC(=O)OCc2ccccc2)cc1 | x | 12 | 96 | -3 | 101 | i | 0.9
CCn1c(=O)[nH]c(=O)c2c(N)c(C(=O)c3ccccc3OC)sc21 | 0.7 | 44 | 44 | -1 | 11 | i | 1.1
CCOC(=O)C1(CC/C(C)=N\NC(N)=O)CC(C)(C)OC1=O (stereo not given) | -0.7 | x | x | -2 | 89 | i | 1
O=C(O)CC(CC(=O)Nc1ccc(Oc2ccccc2)cc1)c1ccccc1 (stereo not given) | x | x | x | x | 104 | i | 0.97
O=C(COC(=O)CCC(=O)c1cccs1)Nc1cc(S(=O)(=O)N2CCOCC2)ccc1Cl | -2.1 | 11 | 167 | -2 | 95 | i | 0.8
CCOc1ccc(CN(C)CC(=O)c2c(N)n(Cc3ccccc3)c(=O)n(CC)c2=O)cc1OC | -0.3 | 14 | 114 | 0 | 98 | i | 0.94
Cc1ccccc1OCCn1cc(C(=S)N2CCCC2)c2ccccc21 | -1.9 | -11 | 100 | 10 | x | x | x
CCCCNCc1cccn1-c1ccccc1 | -1.4 | x | x | 12 | 92 | i | 1.1
COc1ccc(CCNC(=O)CN(c2ccccc2OC)S(C)(=O)=O)cc1 | -1.9 | -180 | 87 | -9 | 105 | i | 0.86
CCOC(=O)C1(CC2CCCCO2)CCN(C(=O)Nc2ccc(C)c(C)c2)CC1 (stereo not given) | x | x | x | 1 | 88 | i | 0.94
CCCCCC(=O)N1CC2(CC(c3cccc(NC(=O)COc4ccc(Cl)cc4)c3)=NO2)C[C@@H]1C(N)=O (stereo not given in full) | x | x | x | x | 102 | i | 0.96
Cc1ccc(C(=O)Cc2nnc(C)s2)cc1 | -1.7 | -47 | 75 | 1 | 105 | i | 0.94
COc1cccc(Cn2cccc(NC(=O)NC3CCCCC3)c2=O)c1 | -0.2 | x | x | 11 | 102 | i | 1
COc1ccc(NC(=O)CSc2n[nH]c(N)n2)c([N+](=O)[O-])c1 | -2.6 | x | x | -5 | 100 | i | 0.9
CCC(=O)N1CCc2cc(S(=O)(=O)NCCC(=O)N3CC=C(c4ccccc4)CC3)ccc21 | -2.5 | -20 | 89 | -14 | 100 | i | 0.95
O=c1cc(CO)oc(CN2CCN(c3ccccc3F)CC2)c1O | -1.8 | x | x | -11 | 103 | i | 0.87
O=C1c2cccc3cccc(c23)C(=O)N1CCN1CCN(C(=S)Nc2ccccc2)CC1 | 0.5 | 40 | 60 | 0 | 275 | i | 0.74
Cc1cc(O)c(C2(C(F)(F)F)NCCNC2=O)cc1C (stereo not given) | -2.0 | 19 | 119 | 0 | 101 | i | 0.8
COc1ccc(-c2cn(-c3cccc(C)c3)c(=O)[nH]2)cc1OC | x | 0 | 71 | -4 | 98 | i | 1
COc1ccc(NC(=O)c2ccc(C(=O)Nc3ccc(OC)cc3OC)cc2)c(OC)c1 | x | 6 | 112 | 9 | 101 | i | 0.88
CCCCONc1ncnc2nonc12 | -0.3 | -33 | 90 | -5 | 98 | i | 0.98
CC(=O)NC(=S)Nc1cccc2c(C)cc(C)nc12 | x | 0 | 151 | 4 | 96 | i | 1.1
CN(CC(=O)N1CC=C(c2ccccc2)CC1)S(=O)(=O)c1ccc2c(c1)c(=O)n(C)c(=O)n2C | -3.3 | x | x | -19 | 102 | x | x
Cc1cc(C)cc(NC(=O)Nc2ccc(N3CCCCC3)cc2)c1 | x | x | x | x | 97 | i | 0.85
COc1ccccc1NC(CC(=O)c1ccccc1)C(=O)OCC(=O)c1ccc(F)cc1 (stereo not given) | -1.2 | 27 | 108 | 2 | 44 | i | 0.96
COc1ccc(CCN(Cc2nc3ccccc3c(=O)[nH]2)C(=O)c2ccco2)cc1 | -2.9 | 17 | 123 | -15 | 96 | i | 0.9
CCOc1ccc(-c2cc(CCCC(=O)NCCCOC)no2)cc1 | -1.1 | 9 | 80 | 12 | 100 | i | 0.82
Cc1ccccc1NCN1C(=O)C2C3C=CC(C3)C2C1=O (stereo not given) | -1.6 | x | x | -9 | 102 | i | 0.85

The list continues.
Compound	GALR2 agonist	Insulin prom inh	Insulin prom inh cell count	PKD1 kinase inh	RGS16-Gao HTS	HSV replic up	HSV replic up primary fold
O=C1c2ccccc2C(O)N1Cc1ccccc1 (stereo not given)	-3.7	x	x	-9	93	i	0.93
CCOC(=O)C(NCc1ccco1)(NC(=O)c1ccccc1)C(F)(F)F (stereo not given)	-0.1	19	55	-3	103	i	1.1
CCOc1ccc(-n2c(-c3ccccc3)nnc2-c2ccccc2)cc1	-1.2	25	149	2	99	i	0.96
O=C(Nc1cc([N+](=O)[O-])ccc1N1CCOCC1)c1ccco1	x	x	x	2	100	i	0.99
CCCCn1c(SCC(=O)O)nc2ccccc21	0.8	11	142	5	88	i	1.1
COCCCN1CN(S(=O)(=O)c2ccc(Cl)cc2)c2nc3ccccc3nc21	2.5	-19	56	-4	107	i	1.1
C=CCN(C(=O)Cn1nnc2ccccc21)C(C(=O)NCCOC)c1ccc(OC)cc1OC (stereo not given)	-1.7	x	x	1	114	i	1
Cc1ccc2nc(C)cc(Nc3ccc4c(c3)OCCO4)c2c1	-1.5	-5	110	2	99	i	0.67
CSCCC(NS(=O)(=O)c1ccc2[nH]c(=O)c(=O)[nH]c2c1)C(=O)O (stereo not given)	x	7	109	-6	89	i	0.99
Cc1nn(-c2ccccc2)c(C)c1/C=N\N1CCN(c2ccc(Cl)cc2)CC1	-4.0	-23	104	-17	x	i	0.85
COc1ccc(C(=O)N/C(=C\c2cn(S(=O)(=O)N(C)C)c3ccccc23)C(=O)NC(C)C)cc1	x	x	x	3	94	i	0.78
O=C1/C(=C/c2ccc3c(c2)OCO3)CCC/C1=C\c1ccc2c(c1)OCO2	-2.4	-69	41	-11	84	i	1

Already shown: an excerpt of the list.
Compound	GALR2 agonist	Insulin prom inh	Insulin prom inh cell count	PKD1 kinase inh	RGS16-Gao HTS	HSV replic up	HSV replic up primary fold
COCCCN1CN(S(=O)(=O)c2ccc(Cl)cc2)c2nc3ccccc3nc21	2.5	-19	56	-4	107	i	1.1
C=CCN(C(=O)Cn1nnc2ccccc21)C(C(=O)NCCOC)c1ccc(OC)cc1OC (stereo not given)	-1.7	x	x	1	114	i	1
Cc1ccc2nc(C)cc(Nc3ccc4c(c3)OCCO4)c2c1	-1.5	-5	110	2	99	i	0.67
CSCCC(NS(=O)(=O)c1ccc2[nH]c(=O)c(=O)[nH]c2c1)C(=O)O (stereo not given)	x	7	109	-6	89	i	0.99
Cc1nn(-c2ccccc2)c(C)c1/C=N\N1CCN(c2ccc(Cl)cc2)CC1	-4.0	-23	104	-17	x	i	0.85
COc1ccc(C(=O)N/C(=C\c2cn(S(=O)(=O)N(C)C)c3ccccc23)C(=O)NC(C)C)cc1	x	x	x	3	94	i	0.78
O=C1/C(=C/c2ccc3c(c2)OCO3)CCC/C1=C\c1ccc2c(c1)OCO2	-2.4	-69	41	-11	84	i	1

(next part)
Compound	GALR2 agonist	Insulin prom inh	Insulin prom inh cell count	PKD1 kinase inh	RGS16-Gao HTS	HSV replic up	HSV replic up primary fold
O=C(Nc1ccc2cn[nH]c2c1)c1ccccc1F	-0.6	-29	136	-5	111	i	1
CCOC(=O)C1=C(c2ccccc2)N=C2SCC(=O)N2C1c1ccc(O)c(OC)c1 (stereo not given)	-0.7	17	158	11	222	i	0.96
CCOC(=O)C1CCN(C(=O)COc2ccc(S(=O)(=O)NC(C)C)cc2Cl)CC1	-0.3	-33	122	-1	103	i	1
COC(=O)CCC(=O)OC1(C)C(=O)C=C2C=C(C3CC3)N(CCc3ccccn3)C=C2C1=O (stereo not given)	x	x	x	x	105	i	0.87
CC1CC(C)CN(CCCNC(=O)c2ccc(CS(=O)(=O)Cc3ccccc3F)o2)C1 (stereo not given)	0.8	-100	132	-1	97	i	0.99
O=C1CCCC2=C1C(c1cccs1)Nc1ccccc1N2 (stereo not given)	1.1	-10	105	-3	97	i	0.97
O=C(Nc1ccc2c(c1)OCCO2)C1CCCN(S(=O)(=O)c2cccc3nsnc23)C1 (stereo not given)	-2.3	-26	82	-4	101	i	0.72
O=C(N/N=C/c1cccs1)[C@H]1C[C@@H]1c1ccccc1	-0.4	0	106	-8	85	i	0.95
